GIV Gai3 FP: inhibitors of GIV peptide binding to Galpha-i3, primary screen, biochemical, fluorescence polarization, FITC-GIV GBA peptide, rat Galphai3; 90 min; active compounds read low; scaled: aluminum fluoride 0%, vehicle 100%; percent of control (FP), % (no concentration beside the values); hit rate 0.42% among 210,000; AID 1224905, 2016;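 active = replicate mean at 85% of control or lower, very high polarization wells dropped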;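 note: wells of about 15 µL received 100 nL stock; the first replicate is given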
Target sequence (P08753 whole entry, looked up): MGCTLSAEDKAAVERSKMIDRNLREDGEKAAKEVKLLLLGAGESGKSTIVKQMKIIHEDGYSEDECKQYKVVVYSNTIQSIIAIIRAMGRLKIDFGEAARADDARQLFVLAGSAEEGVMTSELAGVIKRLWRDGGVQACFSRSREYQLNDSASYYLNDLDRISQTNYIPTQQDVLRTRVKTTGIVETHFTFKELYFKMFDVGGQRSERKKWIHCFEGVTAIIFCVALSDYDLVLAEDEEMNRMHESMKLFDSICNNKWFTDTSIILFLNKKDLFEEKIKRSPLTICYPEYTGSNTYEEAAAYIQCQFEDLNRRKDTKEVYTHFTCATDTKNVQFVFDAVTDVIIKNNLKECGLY
HCMV NEC inh: inhibitors of HCMV UL50-UL53 interaction, biochemical, HTRF | hit rate 0.15% among 190,000 | HCMV UL50-UL53 nuclear egress complex (human cytomegalovirus) | inhibition, % (test concentration not listed) | AID 1918969, 2023 | normalized percent inhibition;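 active = both replicates at 50% or more, plus weaker picks with an unusually low signal ratio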;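 note: stock transfer was 100 nL into about 20 µL; 0% = negative control wells and 100% = wells with untagged competitor protein; inactives centre near -12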
Sa growth 42C: S. aureus growth inhibition at 42 and 30 °C, primary screen, LtaS inhibitor project, RN4220, two temperatures; OD600, 20 h, 42 °C; active compounds read low; relative growth, % (no concentration beside the values); hit rate 0.53% among 170,000;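 active = growth at 42 °C up to 50% and 20 or more points under that at 30 °C, or under 10% at both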;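 note: 300 nL library stock went into each well; scaled to the means of positive and negative controls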
Sa growth 42C second temp: recorded beside Sa growth 42C, whose call it bears; relative growth, %; measured here: growth at 30 °C;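 optical density after 20 h as mean of two plates; 100% = untreated growth and lower means inhibition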
Active calls of the source: *; · = not tested or not shown; & = joins results of further samples.

SMILES | GIV Gai3 FP | HCMV NEC inh | Sa growth 42C | Sa growth 42C second temp
Cc1nc2ncccc2c(=O)n1-c1cccc(NC(=O)c2ccccc2)c1 | 110 | 17 | · | ·
CC1(C)Cc2cccc(OC(=O)c3cncc(Br)c3)c2O1 | · | -10 | 123 | 93
COc1cccc(-c2cc(=O)n3c4ccccc4n(CC(=O)Nc4ccc(C)cc4)c3n2)c1 | 97 | 5 | · | ·
CN=C1SC(CC(=O)Nc2ccc(F)cc2F)C(=O)N1/N=C(\C)c1cccc(-n2cnnn2)c1 (stereo unspecified) | · | -8 | 124 | 89
CCOc1ccc(C(=O)Nc2cccc(NC(=O)c3ccco3)c2)cc1Cl | 110 | -44 | 98 | 82
Cc1cc(C)n(-c2nnc(Nc3ccc(C)c(C)c3)c3ccccc23)n1 | 100 | -8 | 94 | 84
N#CC(Cc1ccccc1)Sc1nnc2sc3ccccc3n12 (stereo unspecified) | · | -18 | 97 | 96
COc1cc(CC(=O)N2CCN(C(=O)C3CCCO3)CC2)cc(OC)c1OC (stereo unspecified) | · | -19 | 94 | 94
O=C(NCc1ccc(Cl)cc1)c1cnc2sc(N3CCCCC3)nn2c1=O | 99 | -15 | · | ·
CN(C(=O)Cn1cnc2onc(-c3ccc(F)cc3)c2c1=O)c1ccccc1Cl | 102 | · | 92 | 96
Cn1c(=O)[nH]c(=O)c2c1[nH]c(=S)n2Cc1cccc(Br)c1 | 102 | -2 | · | ·
CCOC(=O)c1sc(N(Cc2ccccc2)C(=O)CSc2nnc3n2CCCCC3)nc1C | · | -6 | 107 | 96
COc1ccc(C2Nc3ccccc3NC3=C2C(=O)CC(C)(C)C3)cc1COc1ccc(F)cc1 (stereo unspecified) | 105 | -1 | · | ·
Cc1ccsc1CCNS(=O)(=O)c1ccc(CN2C(=O)c3cccnc3C2=O)s1 | 101 | -56 | 98 | 85
CCn1c(O)c(C=Nc2ccc3[nH]ncc3c2)c(=O)n(CC)c1=S | · | 22 | 78 | 96
Cc1cc2nc(C(F)(F)F)cc(=O)n2[nH]1 | 101 | 0 | 123 | 85
O=C1CCCN1c1ccc(S(=O)(=O)NCCOc2ccccc2Cl)cc1 | 95 | -7 | 84 | 80
Cc1sc2nc(SCCC(C)C)nc(N)c2c1C | 103 | · | 100 | 88
Cc1cc(NC(=O)c2ccc(Cl)cc2)n(-c2nc3ccccc3s2)n1 | · | -18 | 99 | 88
CCc1ccc(NC(=O)c2cnc(N3CCN(c4ccccn4)CC3)c3ccccc23)cc1 | 101 | -21 | 94 | 104

Reprinted from the part before: 2 entries, followed by the next part.
SMILES | GIV Gai3 FP | HCMV NEC inh | Sa growth 42C | Sa growth 42C second temp
Cc1cc(NC(=O)c2ccc(Cl)cc2)n(-c2nc3ccccc3s2)n1 | · | -18 | 99 | 88
CCc1ccc(NC(=O)c2cnc(N3CCN(c4ccccn4)CC3)c3ccccc23)cc1 | 101 | -21 | 94 | 104
O=C1OC(C(=O)NCc2ccccc2)Cc2ccccc21 (stereo unspecified) | 105 | -12 | 111 | 87
COc1ccc(NC(=O)N2CCc3cc(-c4ccc(C(=O)N5CCOCC5)cc4)ccc32)cc1OC | 99 | -30 | · | ·
O=S(=O)(c1ccccc1)N1CCC(O)(c2ccccc2)C2CCCCC21 (stereo unspecified) | 101 | -21 | 88 | 36
CC(NC1CCOC(C)(C)C1)c1ccccc1 (stereo unspecified) | 105 | -19 | 106 | 83
O=C(CSC1CCCC1)c1ccccc1Br | · | -6 | 96 | 93
COC(=O)CSc1nnc(CNC(=O)Cc2ccccc2)n1C | 102 | · | 115 | 82
CS/C(NCC1CC1)=C(/C#N)C(=O)c1ccc(Cl)cc1 | 110 | -12 | 92 | 96
CCOC(=O)c1ccc(NC(=O)/C=C/c2cccc(C(F)(F)F)c2)s1 | · | -10 | 105 | 88
CCOC(=S)Nc1cccc2ccccc12 | 99 | -24 | 92 | 81
CCOc1ccc(-c2cc3nc(C4CCN(C(=O)OC(C)(C)C)CC4)c(C(=O)Nc4ccc(C)cc4C)cn3n2)cc1 | 109 | -28 | 111 | 87
CCOc1c(C)cnc2c1c(=O)n(CC(=O)NC(C)(C)C)c(=O)n2C | 100 | -8 | · | ·
O=c1cc(CNC(c2ccccc2)c2ccccc2)nc2sccn12 | · | -32 | 108 | 89
O=C(CC(c1ccc(F)cc1)N1Cc2ccccc2C1=O)Nc1cccnc1 (stereo unspecified) | 104 | 7 | · | ·
Cc1cccc(OCc2nnc(SCc3nc4ccccc4nc3C)o2)c1 | · | -13 | 94 | 97
CCOC(=O)N1CCC(NC(=O)Cn2ncc3ccccc32)CC1 | 107 | 5 | 110 | 101
CCc1cc(=O)oc2c(OC(C)=O)c(OC(C)=O)ccc12 | 97 | -44 | 93 | 75
CC(C)CC(C(=O)NC1CCCCC1C)N1C(=O)c2ccccc2C1=O (stereo unspecified) | 104 | -7 | 91 | 87
C=CCn1c(=O)[nH]c2nc3cc(NC(=O)CC)ccc3nc2c1=O | 104&92 | -121&-134 | 80 | 89
CC(C)(C)C(=O)Oc1ccc(Br)cc1 | 105 | 15 | 88 | 99
Cc1cccc(CSCCNC(=O)C2CCN(S(=O)(=O)Cc3ccccc3)CC2)c1 | 103 | -2 | 109 | 84
Cc1ccc(CNC(=O)CCS(=O)(=O)c2cc3c(cc2Cl)NC(=O)CO3)cc1 | 108 | · | 106 | 91
CCCCCCn1c(/C=C/c2ccccc2)nc2ccccc21 | 102 | -60 | 85 | 49
CN(CC(O)Cn1c2ccccc2c2ccccc21)S(=O)(=O)c1ccc(Cl)cc1 (stereo unspecified) | 107 | · | 97 | 63
CCOc1ccc(N2CC(c3nc4ccccc4n3Cc3ccc(F)cc3)CC2=O)cc1 (stereo unspecified) | 102 | · | 89 | 90
COc1ccc(-c2cc(C(=O)Oc3cccc(C)c3)c3ccccc3n2)cc1 | 105 | -45 | 92 | 84
COc1ccc(-n2c(=O)c3c4c(sc3n3cnnc23)COC(C(C)C)C4)cc1 (stereo unspecified) | · | 8 | 91 | 101
O=c1c(-c2ccccc2)[n+]([O-])c2ccccc2n1O | 100 | -37 | · | ·
Cc1ccc(NC(=O)CN2C(=O)CSc3ccc(S(=O)(=O)N4CCCC4)cc32)c(C)c1 | 103 | · | 110 | 90
Cc1ccc(Cl)cc1N1CCN(C(=O)CCSCc2ccccc2F)CC1 | 103 | · | 91 | 93
Cc1cc(=O)n2[nH]cnc2n1 | 105 | -20 | 89 | 84
COC(=O)CC1C(=O)NCCN1C(=O)OC(C)(C)C (stereo unspecified) | 99 | · | 113 | 89
O=C(C1CC1)N1CCN=C1SCc1ccccc1 | 98 | · | 86 | 88
CCn1c2ccccc2c2cc(NC(=O)COc3cccc(C)c3)ccc21 | 105 | -29 | 89 | 85
CCOc1ccc(-c2c(C)[nH]n3c(=O)c(N4CCc5ccccc5C4)c(C)nc23)cc1OCC | 100&101 | 0&-11 | 33 | 45
N#C/C(=C/c1ccccc1)C(=O)NCc1ccccc1 | 104 | -26 | 88 | 84
CCc1ccccc1NCc1nnc2n1CCCCC2 | 99 | · | 92 | 88
COC(=O)c1ccccc1NC(=O)CSc1n[nH]c(C)n1 | 105 | -29 | 112 | 90
Cc1ccc(CN(Cc2ccco2)C(=O)COc2cccc(C)c2C)o1 | 102 | -37 | 91 | 76
Cc1ccc(N(CC(=O)Nc2ccc(Br)cc2)S(=O)(=O)c2cccs2)cc1 | 101 | -20 | 103 | 88
COc1ccc(-c2nc(Nc3ccccc3OC)c3ccccc3n2)cc1 | 110 | -19 | · | ·
O=C(O)c1cn(CCOc2ccccc2)c2ccccc12 | 104 | -8 | 98 | 94
CC1CC(C)CN(C(=O)CSc2nc3ccccc3c3nc4ccccc4n23)C1 (stereo unspecified) | 101 | · | 106 | 99
CCOC(=O)c1c(NC(=O)COc2cc(C)ccc2C(C)C)sc2c1CCCC2 | 100 | -43 | 114 | 96
O=C(/C=C1/NCCS1)c1ccc(Cl)cc1 | 108 | 1 | 98 | 100
COc1cccc(C2C(C#N)=C(N)Oc3c2c(C)nn3-c2ccccc2)c1 (stereo unspecified) | · | -4 | 96 | 82
CCOc1ccccc1-n1c(N)c(C(=O)OC)c2nc3ccccc3nc21 | 104 | -27 | 100 | 92
CCSc1nc2sc3c(c2c(=O)n1Cc1ccccc1)CC(C)(C)OC3 | 106 | -19 | · | ·
O=C(Nc1ccc(F)c(F)c1)c1ccc(S(=O)(=O)c2ccc(Br)cc2)nc1 | 102 | -9 | · | ·
Cc1cccc(C(=O)Nc2cc3[nH]c(=O)[nH]c3cc2C)c1 | 107 | -6 | · | ·
CC(C)NC(=O)C1CCN(c2nc3cc(Cl)ccc3s2)CC1 | 103 | -1 | 106 | 87
Cc1ccccc1CN1c2ccccc2S(=O)(=O)c2ccccc21 | 98 | · | 97 | 93
CCCCNC(=O)CCCn1c(=O)c2ccccc2n(Cc2ccc(Cl)cc2)c1=O | 105 | -3 | 108 | 93
Cc1ccc2nc(NC(=O)c3nc(-c4ccccc4)oc3C)sc2c1 | · | -6 | 118 | 102
CCc1nc(-c2cc(S(=O)(=O)NCC(=O)NC3CCCc4ccccc43)c(C)s2)no1 (stereo unspecified) | 105 | -5 | · | ·
O=c1c2ccccc2[nH]c(=S)n1CC1COc2ccccc2O1 (stereo unspecified) | 104 | · | 102 | 82
O=C(C1CC1)N1CCc2cc(S(=O)(=O)Nc3ccc(Cl)cc3)ccc21 | 104 | 2 | 105 | 95
CC(C)(C)n1ncc2c(=O)n(CC(=O)c3ccccc3)cnc21 | 100 | · | 85 | 86
NC(=O)C1CC(=O)N(CCc2ccc(F)cc2)C1 (stereo unspecified) | 102 | · | 87 | 86
CSc1nc(-c2ccc(Cl)cc2)nc(SC)c1Cl | 98 | 19 | 99 | 99
Cc1nc(CC(=O)Nc2ccc(C(N)=O)cc2)cs1 | 105 | -21 | 100 | 86
Later entries:
SMILES | GIV Gai3 FP | HCMV NEC inh | Sa growth 42C | Sa growth 42C second temp
COC(=O)c1cc(S(=O)(=O)N2CCCC2C(=O)Nc2cccc(C)n2)cn1C (stereo unspecified) | 102 | 8 | · | ·
Cc1ccccc1Cn1c(CN2CCC(C(=O)O)CC2)cc2ccccc21 | 104 | 16 | · | ·
CCOC(=O)c1cnc2c(-c3ccc(OC)c(OC)c3)cnn2c1N | 100 | -19 | · | ·
CC(C)(C)c1nc2scc(-c3ccc(Br)cc3)c2c(=O)o1 | · | -7 | 108 | 91
CC(=O)c1ccc(NC(=O)CCn2nc(C)c(S(=O)(=O)N3CCC(C)CC3)c2C)cc1 | 102 | · | 82 | 76
O=C(Cn1cnc2ccccc2c1=O)NCCSCc1ccco1 | · | -19 | 90 | 93
Cc1nn(-c2ccccc2)c2sc(C(=O)N(Cc3ccccc3)Cc3ccccc3)cc12 | 103 | · | 114 | 91
CC/C(=C(\c1ccccc1)c1ccc(OCCN(C)C)cc1)c1ccccc1 | 101&92&100 | -32&-27&4&-16&-13&-5&-18 | 67&96 | 42&72
CCOC(=O)c1c(NC(=O)C(C)Sc2cn(CCNC(=O)c3ccc(OCC)cc3)c3ccccc23)sc2c1CCC2 (stereo unspecified) | 101 | -12 | 107 | 87
CN(C)CCNC(=O)Cn1nc(N2CCN(c3ccccc3)CC2)ccc1=O | 110&102 | -34 | 86 | 94
O=C(NC(=O)N1CCCC1)C1CCN(c2cnc3ccccc3n2)CC1 | 102 | -61 | 107 | 87
CN1CCN(C2=NS(=O)(=O)c3ccccc32)CC1 | 98 | -14 | · | ·
CCCNC(=O)c1ccc(NC(=O)N2CCCCc3ccccc32)cc1 | 98 | -12 | 94 | 93
Cc1ccccc1OCCn1c(CO)nc2ccccc21 | 105 | -30 | · | ·
c1ccc(-c2cc(-c3nnco3)c3ccccc3n2)nc1 | · | -38 | 86 | 88

Molecules above that have a thiophene ring, fused or not (11):
SMILES | GIV Gai3 FP | HCMV NEC inh | Sa growth 42C | Sa growth 42C second temp
Cc1ccsc1CCNS(=O)(=O)c1ccc(CN2C(=O)c3cccnc3C2=O)s1 | 101 | -56 | 98 | 85
Cc1sc2nc(SCCC(C)C)nc(N)c2c1C | 103 | · | 100 | 88
CCOC(=O)c1ccc(NC(=O)/C=C/c2cccc(C(F)(F)F)c2)s1 | · | -10 | 105 | 88
COc1ccc(-n2c(=O)c3c4c(sc3n3cnnc23)COC(C(C)C)C4)cc1 (stereo unspecified) | · | 8 | 91 | 101
Cc1ccc(N(CC(=O)Nc2ccc(Br)cc2)S(=O)(=O)c2cccs2)cc1 | 101 | -20 | 103 | 88
CCOC(=O)c1c(NC(=O)COc2cc(C)ccc2C(C)C)sc2c1CCCC2 | 100 | -43 | 114 | 96
CCSc1nc2sc3c(c2c(=O)n1Cc1ccccc1)CC(C)(C)OC3 | 106 | -19 | · | ·
CCc1nc(-c2cc(S(=O)(=O)NCC(=O)NC3CCCc4ccccc43)c(C)s2)no1 (stereo unspecified) | 105 | -5 | · | ·
CC(C)(C)c1nc2scc(-c3ccc(Br)cc3)c2c(=O)o1 | · | -7 | 108 | 91
Cc1nn(-c2ccccc2)c2sc(C(=O)N(Cc3ccccc3)Cc3ccccc3)cc12 | 103 | · | 114 | 91
CCOC(=O)c1c(NC(=O)C(C)Sc2cn(CCNC(=O)c3ccc(OCC)cc3)c3ccccc23)sc2c1CCC2 (stereo unspecified) | 101 | -12 | 107 | 87
